Screens: PubChem, National Center for Advancing Translational Sciences (NCATS)
2A Renilla – Primary qHTS Assay for Foot and Mouth Disease Virus Antivirals against NCGC Sytravon and CBC Compound Libraries: Renilla Luciferase Signal; HEK cells with a luciferase reporter of 2A StopGo recoding; Potency, µM (doses to about 57.5 µM), for the others: top-dose signal change, negative = less light; AID 1745857, 2022; 120,000 compounds, 0.32% hits; active means well fitted falling curve with a large enough effect; inconclusive means small, poorly fitted or top-dose-only effect; inactive means no such curve, though single readings can be large or run the other way; also: nearly all actives have a fitted effect of over 55% in size; overnight with compound
StopGo FLuc – Primary qHTS Assay for Foot and Mouth Disease Virus Antivirals against NCGC Sytravon and CBC Compound Libraries: Firefly Luciferase Signal | Potency, µM (top dose mostly 57.5 µM), for inactives: top-dose signal change, negative = less light | HEK cells with a luciferase reporter of 2A StopGo recoding | 120,000 compounds, 0.23% hits; active = well fitted falling curve with a large enough effect; inconclusive = small, poorly fitted or top-dose-only effect; inactive = no such curve, though single readings can be large or run the other way; also: nearly all actives have a fitted effect of over 60% in size; overnight with compound
Numbers without * were called inactive; ? = inconclusive; & = joins results of further samples; [ ] = dose if it differs, or a comment. % is scaled to controls: 0 for no effect and ±100 for the full control effect; potency is read from the fitted curve at half-maximal effect. The list is partial (hit frequency here may not be typical).

SMILES	2A Renilla	StopGo FLuc
CCOc1ccc(CCNC(=O)c2noc(C)c2Cn2nc(C)cc2C)cc1OCC	9%	10%
Cc1ccc(-c2cc(NC(=O)COc3c(C)cc(C)cc3C)on2)cc1	-7%	34%[activator]
Cc1ccc(NC(=O)Cn2c(-c3nonc3N)nc3ccccc32)cc1C	144%[activator]	-3%
O=C(NCCc1ccccc1)C12CC3CC(CC(Cl)(C3)C1)C2	22%	39%[activator]
CCOCCCNCc1ccc(C(C)C)cc1	2%	24%
O=C(NC(=O)c1ccccc1)Nc1ccc(-n2nc(C(F)(F)F)cc2C(F)(F)F)cc1	0%	-5%
CCn1c(=O)c2cc(C(=O)Nc3cc(F)ccc3F)sc2c2ccccc21	-2%	-1%
Cc1nn(-c2ccc(F)cc2)c(-n2cccc2)c1C(=O)NCCc1ccc(Cl)cc1	-33%	?
Cc1ccccc1NC(=O)CCNC(=O)Cn1ccc2ccccc2c1=O	-14%	?
Cc1ccc(C(=O)NC2CCCc3ccccc32)s1 (centres undefined)	114%[activator]	0%
CCN(Cc1ccccc1)C(=O)Cn1c(=O)n(-c2cccc(C)c2)c(=O)c2c1c1cc(OC)ccc1n2C	9%	-14%
O=C(CCCn1c(=O)c2cccn2c2cccnc21)NCc1ccc(F)cc1	13%	4%
COc1ccc(C)cc1-n1c(SCC(=O)Nc2ccc(C(N)=O)cc2)nc2ccccc2c1=O	22%	15%
COc1ccc(NC(=O)C2CC(=O)N(C3CCCC3)C2)cc1S(=O)(=O)N1CCCCC1 (centres undefined)	38%[activator]	14%
COc1ccc2c(CCNC(=O)c3cccc4ccccc34)c[nH]c2c1	19%	31%
COc1cccc(Cc2nc3ccccc3nc2SCC(=O)NCCc2ccccc2)c1	14%	?
Cc1cc(Br)cc(Cl)c1OCC(=O)Nc1cccc(N2CCCC2=O)c1	-3%	6%
O=C(Nc1cccc2cccnc12)NC1CCCCC1	18%	64%[activator]
O=C(CCC(=O)c1ccc(F)cc1)OCC(=O)c1cc(Cl)ccc1Cl	-3%	-4%
N#C/C(=C\c1ccccc1OC(=O)c1cccc2ccccc12)C(=O)Nc1ccccc1C(F)(F)F	?	130%[activator]
N#Cc1cccc(NC(=O)CSc2ccccc2C(=O)Nc2ccc3c(c2)OCCCO3)c1	30%[activator]	106%[activator]
COc1ccc(OC)c(NC(=O)c2cnc(N3CCOCC3)c3ccccc23)c1	19%	1%
Cc1ccnc2nc(C(=O)OCC(=O)Nc3ccccc3)nn12	-16%	90%[activator]
COc1ccc2nc(SCC(=O)Nc3nc(C)cs3)[nH]c2c1	-13%	20%
CC1CCCc2c1nc1sc3c(c1c2-c1cccc(F)c1)CCCC3 (centres undefined)	-2%	-9%
Cc1ccnc(NC(=O)c2cnc3ccccc3n2)c1	-9%	136%[activator]
CCOc1ccccc1/C=C(/C#N)C(=O)c1cccc(OC)c1	5%	17%
NC(=O)C1(N2CCCCC2)CCN(C(=O)Nc2ccc(F)cc2F)CC1	-5%	29%
COC(=O)c1cnc(N2CCCCC2C)c2ccccc12 (centres undefined)	0%	0%
CC1CCCCN1CCCNC(=O)c1ccc2c(c1)sc1nc(-c3ccc(F)cc3)cn12 (centres undefined)	-13%	0%
CC(=O)N1CCC2(CC1)OC(=O)C(C)=C2C(=O)NCc1cccc(Cl)c1	-10%	-8%
CCOC(=O)c1ccccc1NC(=O)Cn1c(=O)n(Cc2ccccc2)c(=O)c2c(C)c(C)sc21	-13%	-16%
COc1ccc(Cl)cc1NC(=O)CSc1ccc(-c2sc(C)nc2C)nn1	-9%	-11%
Cc1ccc(OCC(=O)Nc2ccc(Cl)cc2C(=O)c2ccccc2)cc1	-11%	0%
Cc1cccc(-n2c(=O)c3c(c4cc(C)ccc4n3C)n(CC(=O)N3CCCC3)c2=O)c1	-4%	5%
COc1ccc(-c2noc(CC(=O)N(C)c3ccccc3F)n2)cc1	30%[activator]	-17%
COc1cccc(-n2c(/C=C/c3cccc(C)c3)nc3ccccc3c2=O)c1	-6%	-10%
Cc1noc(C)c1S(=O)(=O)N(C)CC(=O)Nc1ccccc1C(C)C	-3%	3%
COc1cccc(C(=O)OCc2nc(N)c3ccccc3n2)c1O	10%	0%
Cc1ccc(OCCn2c(CN3CCCCC3)nc3ccccc32)cc1	-10%	-11%
CC(=O)c1ccc(S(=O)(=O)N2CCN(c3nc(-c4cccnc4)nc4ccccc34)CC2)cc1	0%	0%
COc1cccc(N2CCN(C(=O)CCCCCn3c(=O)[nH]c4ccccc4c3=O)CC2)c1	17%	-24%
O=C(NC1CC2CCC1C2)C1(c2ccccc2)CCC1 (centres undefined)	9%	-5%
Cc1ccc(NC(=O)C(Cc2ccccc2)n2cccc2)cc1C (centres undefined)	1%	6%
CCc1ccc(CNC(=O)CCSCc2ccccc2F)cc1	2%	-9%
CCc1nc(SC)ncc1C(=O)N1CCN(c2cc(Cl)ccc2C)CC1	-17%	-22%
CCOC(=O)C1=C(C)NC(=O)NC1c1cccc(Oc2ccc(Cl)cc2)c1 (centres undefined)	?	?
CCOc1ccc2c(c1)cc(C(=O)NCc1ccccc1)n2C	9%	0%
Cc1cccc(Cn2c(CN3CCOCC3)nc3c2c(=O)[nH]c(=O)n3C)c1	-13%	-14%
O=C(NCCCc1ccccc1)c1cc(C2CC2)nc2ccccc12	29%	1%
COc1ccc(NC(=O)c2ccc(-c3nc(COc4ccccc4)c(C)o3)cc2)cc1	-21%	-11%
COc1ccc(C(=O)NCC(c2ccco2)S(=O)(=O)c2ccc(F)cc2)cc1 (centres undefined)	5%	-15%
Cc1ccc2c(CN3CCOCC3)cc(=O)oc2c1C	-10%	39%[activator]
O=C(COC(=O)c1ccc2ccccc2n1)Nc1cccc2ccccc12	-5%	16%
CNC(=O)/C=C/c1ccc(C)cc1C	22%	166%[activator]
CCN(C(=O)COC(=O)c1nc2nc(C)cc(C)n2n1)C1CCCCC1	-1%	-4%
O=C(NCc1ccc(F)cc1Cl)c1ccc(CSCc2ccccc2Cl)o1	-11%	-17%
CCOc1cccc2cc(C(=O)N3CCCCCC3)c(=O)oc12	44%[activator]	2%
C[C@@H](N)C(=O)O	-9%	-21%
O=C(Nc1ncn[nH]1)C1CC(=O)N(c2ccc3c(c2)OCO3)C1 (centres undefined)	3%	11%
Next section:
SMILES	2A Renilla	StopGo FLuc
CCn1c2c(c(=O)n3ncc(C(=O)Nc4ccc(Cl)cc4C)c13)CN(Cc1ccc(OC)cc1)CC2	-1%	-17%
O=[N+]([O-])c1cccc(-n2nc(-c3ccccc3)c3cnc4ccccc4c32)c1	-5%	-10%
Cc1ccc(NC(=O)c2ccc(Cl)cc2Cl)nc1	0%	114%[activator]
Cc1cc(C)c(C)c(SC(C)C(N)=O)c1C (centres undefined)	-5%	1%
COc1ccc(N2CCN(c3nc4ccc(C(=O)c5ccccc5)cc4n4cnnc34)CC2)cc1	-13%	-9%
CCOC(=O)c1ccc(NC(=O)N2CC3CCCN3c3ccccc32)cc1 (centres undefined)	-15%	0%
CCC(C)NC(=O)C1CCN(C(=O)C(C)(C)C)CC1 (centres undefined)	4%	10%
Cc1ccccc1C(=O)c1cccn1CC(=O)NCc1cccc(Cl)c1	61%[activator]	104%[activator]
CC(C)c1ccc(OCC(=O)Nc2cc(C(F)(F)F)ccc2N2CCOCC2)cc1	12%	16%
O=[N+]([O-])c1ccc(-c2nc(Nc3cccc(O)c3)c3ccccc3n2)cc1	-23%	56%[activator]
O=C(Cn1cnc2c(nc3n2CCCCC3)c1=O)Nc1ccc(F)cc1	-12%	-16%
CCOC(=O)C1CCC(CN(Cc2c(Cl)cccc2Cl)S(=O)(=O)c2ccc(F)cc2)CC1 (centres undefined)	47%[activator]	-12%
CN(Cc1cccs1)C(=O)c1cccc(S(=O)(=O)N(C)C)c1	7%	-3%
Cc1ccccc1/C=N/NC(=O)c1ccccc1C	18%	74%[activator]
COc1cc(C)cc2oc(=O)c(CC(=O)NCCc3ccccc3F)c(C)c12	-3%	6%
O=C(O)CCCC(=O)N1CCN(c2ccc(F)cc2)CC1	-4%	10%
N#C/C(=C/c1cccc2ccccc12)c1ccc([N+](=O)[O-])cc1	-11%	60%[activator]
CC1CCN(S(=O)(=O)c2nnc(NC(=O)c3cccc(Br)c3)s2)CC1	-4%	-13%
Cn1c(=O)c2nc(SCC(=O)Nc3ccc(OC(F)(F)F)cc3)n(C)c2n(C)c1=O	-9%	-12%
CCCc1nnc(NC(=O)c2cc(=O)c3cc(C)c(C)cc3o2)s1	-4%&-3%	-1%&-14%
COc1ccc(NC(=O)C(=O)NCc2ccco2)cc1	3%	52%[activator]
O=C(Nc1ccccc1Cl)c1cc(=O)c2cc(Cl)ccc2o1	11%	129%[activator]
COc1ccc(CN(C)C(=O)CSc2nc(-c3cccs3)nc3ccccc23)cc1OC	21%	12%
COc1ccc2c(CN(C)CCOc3cccc(Cl)c3)cc(=O)oc2c1	7%	0%
Cc1ccccc1CNC(=O)Cc1nn(C)c(=O)c2ccccc12	?	?
Cc1ccc(NC(=O)Cn2cc(S(=O)(=O)N3CCCC3)c(S(=O)(=O)N3CCCC3)c2)cc1F	32%[activator]	54%[activator]
COc1ccc(Cl)cc1NC(=O)COCc1cc(-c2ccc(F)cc2)on1	3%	3%
Cc1ccccc1NC(=O)CN1C(=O)C2(SCC(=O)N2c2ccc(F)cc2)c2ccccc21 (centres undefined)	-2%	-9%
CC(NC(=O)c1cc(=O)c2ccccc2o1)C(=O)N1CCOCC1 (centres undefined)	-4%	23%
O=C(Nc1cccc(C2=NCCN2)c1)Nc1cccc(C2=NCCN2)c1	-11%[23.8 µM]	-14%[27 µM]

Ordered by heavy-atom count (lowest first): part of the list above
SMILES	2A Renilla	StopGo FLuc
O=C(O)CCCC(=O)N1CCN(c2ccc(F)cc2)CC1	-4%	10%
N#C/C(=C/c1cccc2ccccc12)c1ccc([N+](=O)[O-])cc1	-11%	60%[activator]
CC1CCN(S(=O)(=O)c2nnc(NC(=O)c3cccc(Br)c3)s2)CC1	-4%	-13%
O=C(Nc1cccc(C2=NCCN2)c1)Nc1cccc(C2=NCCN2)c1	-11%[23.8 µM]	-14%[27 µM]
COc1ccc(Cl)cc1NC(=O)COCc1cc(-c2ccc(F)cc2)on1	3%	3%
Cn1c(=O)c2nc(SCC(=O)Nc3ccc(OC(F)(F)F)cc3)n(C)c2n(C)c1=O	-9%	-12%
Cc1ccccc1NC(=O)CN1C(=O)C2(SCC(=O)N2c2ccc(F)cc2)c2ccccc21 (centres undefined)	-2%	-9%

Later entries.
SMILES	2A Renilla	StopGo FLuc
COc1ccc(C)cc1NC(=O)CN1CCCN(S(=O)(=O)c2ccc(Br)cc2)CC1	7%	-12%
CCc1ccc(NC(=O)N2CCN(Cc3cc(=O)n4nc(-c5ccccc5OC)sc4n3)CC2)cc1	-11%	-12%
COc1ccc(-c2csc(-c3c(N)c(C(=O)c4ccccc4)n4ccccc34)n2)cc1	-8%	-6%
O=C(NC1CCc2ccccc21)C1Cc2ccccc2O1 (centres undefined)	35%[activator]	88%[activator]
CCOC(=O)c1c(NC(=O)/C=C/c2ccc(OCC)c(OC)c2)sc2c1CCC2	-8%	-19%
COc1ccc(C(C)NC(=O)NCc2ccn[nH]2)cc1OC (centres undefined)	-11%	-3%
Cc1nc(-n2nc(C)c(CCC(C)C)c2C)sc1C(=O)Nc1cccc(Cl)c1C	-14%	30%[activator]
COCC(=O)n1nc(-c2ccco2)nc1NCc1ccccc1Cl	9%	27%
Cc1cc(C)cc(OCC(=O)NC2=NCCS2)c1	-12%	48%[activator]
COc1ccc(NC(=O)C2=C(C)Nc3ncnn3C2c2cccn2C)cc1 (centres undefined)	7%	-4%
O=C(NCc1ccc(F)cc1)c1ccc(-c2csc(C3CC3)n2)cc1	50%[activator]	146%[activator]
O=C(c1cc2ccccc2oc1=O)N1CCSC1c1ccccc1 (centres undefined)	15%	-4%
Cc1cnc(NC(=O)C(C)Oc2cc(Cl)ccc2Cl)s1 (centres undefined)	46%[activator]	0%
Cc1cc(C)cc(NC(=O)CSc2nc3c([nH]c4ccccc43)c(=O)n2-c2ccc(F)cc2)c1	-15%	-18%
CC1CCC/C(=C(\C#N)c2nc(-c3ccccc3)cs2)C1 (centres undefined)	32%[activator]	95%[activator]
CCOc1ccc(S(=O)(=O)Nc2ccc(-c3ccc(OC)nn3)cc2)cc1	200%[activator]	10%

Complete entries, looked up by structure:
COCC(=O)n1nc(-c2ccco2)nc1NCc1ccccc1Cl as listed: 2A Renilla = 9%; StopGo FLuc = 27%
COc1ccc(NC(=O)C2=C(C)Nc3ncnn3C2c2cccn2C)cc1 (centres undefined) as listed: 2A Renilla = 7%; StopGo FLuc = -4%
